PINK1 modulator = changes PINK1 expression; PINK1 immunofluorescence, high-content cytometry, 24 h; Potency, µM (top dose mostly 76.6 µM), for inactives: at the highest dose activation (PINK1 increase), actives largely listed as activators; 410,000 compounds, 0.2% hits; active = well fitted activation curve with a large enough effect; inconclusive = small, poorly fitted or top-dose-only effect; inactive = flat fitted curve, though single readings scatter; cell line not stated here;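 note: potency is the fitted concentration of half-maximal effect; % of control where 0% means no effect; nearly all actives have a fitted effect of over 65% in size; a mitochondrial uncoupler was the plate control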
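A stable cell line was treated with compounds at 5 concentrations for 24 hours, with CCCP as control. PINK1 levels and mitochondrial localization were measured by immunofluorescence with mitochondrial, cell and nuclear markers after fixation, read by laser-scanning cytometry.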
Sfp inh = Sfp phosphopantetheinyl transferase inhibition. Potency, µM, inactives show max response, negative = inhibition, hits mostly inhibitors. AID 1490. Biochemical Sfp PPTase activity, qHTS. 310,000 compounds, 3.5% hits; active = well fitted inhibition curve with a large enough effect; inconclusive = small, poorly fitted or top-dose-only effect, or another doubt; inactive = no such curve, though single readings can be large or run the other way;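 note: the enzyme is Sfp with the accession as filed and its product quenches rhodamine fluorescence; potency is the fitted concentration of half-maximal effect; 0% = enzyme reaction without inhibitor and -100% = no enzyme wells; top concentration of the series not given in the record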
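With Hepes-Na pH 7.6 buffer containing 10 mM MgCl2, Sfp (15 nM) modified BHQ-2-YbbR (12.5 uM) using rhodamine-CoA (5 uM). Two reads 30 minutes apart at 525/598 nm yielded each well's rate.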
ClpP mod = qHTS Assay for Activators of ClpP; purified B. subtilis ClpP, FRET peptide cleavage, 20 min; Potency, µM (titrated, usually from 57.5 µM), for inactives: at the top dose activity change, negative = active; 340,000 compounds, 1.9% hits; active = well fitted falling curve with a large enough effect; inconclusive = small, poorly fitted or top-dose-only effect; inactive = no such curve, though single readings can be large or run the other way; note: potency is the fitted concentration of half-maximal effect; the source files actives as falling curves though it sought activators and does not explain the sign; nearly all actives have a fitted effect of over 65% in size; many hits overshoot -100%
Target sequence (P80244 whole entry, looked up): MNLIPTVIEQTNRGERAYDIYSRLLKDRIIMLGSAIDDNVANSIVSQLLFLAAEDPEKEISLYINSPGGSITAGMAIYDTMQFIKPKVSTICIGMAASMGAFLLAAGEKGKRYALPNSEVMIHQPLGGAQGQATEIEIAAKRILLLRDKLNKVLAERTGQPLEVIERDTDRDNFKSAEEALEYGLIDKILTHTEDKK
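Buffer: 100 mM Tris/HCl pH8, 100 mM KCl, 0.05% low protease BSA, 2.5% glycerol, 0.01% Tween-20. ClpP 10 microg/mL final; 20 min RT; delta FRET normalized to ADEP and DMSO controls.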
TRPML1 ag = agonists of human TRPML1 channel | Q9GZU1 | TRPML1-expressing cells, Ca2+ dye fluorescence, FDSS; host cell line not named in the record; reference of the full effect not given here | activation, % (no concentration beside the values) | 410,000 compounds, 0.12% hits | AID 624414; in the data active = activation above about 50%; inconclusive = about 30% to 50%; inactive = below about 30%; note: 0% is about no effect; the text of the record puts the active cut at 80%
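Calcium fluorescence on an FDSS kinetic reader gave the read-out. Tet-induced TRPML1-DL cells were plated overnight, dye-loaded (Ca8 with quencher, 45-90 min, room temperature, dark), then read 110 s after compound addition, and again 110 s after 4uM final 54-4 (EC80).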
TRPV1 potentiator = human TRPV1 potentiation; Q8NER1; TRPV1-expressing cells, Fluo-8 calcium influx, capsaicin EC20 potentiation; host cell line not named in the record; control for the full effect not named in the record; potentiation, % at 8.33 µM; 320,000 compounds, 0.02% hits; active means potentiation above 80%; inconclusive means 30% to 80%; inactive means below 30%; note: 0% is about no effect
Target sequence (Q8NER1 whole entry, looked up): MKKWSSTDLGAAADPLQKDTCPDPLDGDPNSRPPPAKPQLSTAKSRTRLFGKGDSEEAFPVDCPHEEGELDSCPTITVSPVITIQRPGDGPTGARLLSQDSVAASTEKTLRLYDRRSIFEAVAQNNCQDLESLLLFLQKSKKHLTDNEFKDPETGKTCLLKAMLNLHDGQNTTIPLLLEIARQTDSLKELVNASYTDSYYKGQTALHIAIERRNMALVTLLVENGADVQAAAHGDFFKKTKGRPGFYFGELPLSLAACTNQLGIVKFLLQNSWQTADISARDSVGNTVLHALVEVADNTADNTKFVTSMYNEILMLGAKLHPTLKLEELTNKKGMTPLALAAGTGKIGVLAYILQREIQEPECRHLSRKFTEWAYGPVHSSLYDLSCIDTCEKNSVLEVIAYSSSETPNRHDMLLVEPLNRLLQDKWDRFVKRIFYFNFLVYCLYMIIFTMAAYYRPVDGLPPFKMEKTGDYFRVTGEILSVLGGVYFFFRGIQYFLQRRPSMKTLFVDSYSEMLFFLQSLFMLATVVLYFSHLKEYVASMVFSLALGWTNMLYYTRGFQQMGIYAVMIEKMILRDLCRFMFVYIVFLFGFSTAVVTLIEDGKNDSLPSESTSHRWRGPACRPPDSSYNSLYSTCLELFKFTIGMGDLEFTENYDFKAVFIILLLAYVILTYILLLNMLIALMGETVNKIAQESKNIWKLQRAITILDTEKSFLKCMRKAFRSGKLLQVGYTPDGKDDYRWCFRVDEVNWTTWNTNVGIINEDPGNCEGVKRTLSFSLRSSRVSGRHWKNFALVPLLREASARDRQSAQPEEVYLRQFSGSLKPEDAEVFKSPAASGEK
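TRPV1-expressing cells were cultured overnight at 35.5C and loaded with Fluo-8 calcium dye for 40 to 90 min at room temperature. After a 10 s baseline, compound was added and calcium influx was read kinetically for 3 min (ex 480/em 520 nm).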
TRPML1 blocker = human mucolipin-1 channel inhibition. Q9GZU1. TRPML1-inducible cells, Ca2+ dye fluorescence, FDSS; active compounds read low; inhibition of EC80 agonist-evoked calcium signal. activity change, negative = inhibition, % (concentration not given with the values). 390,000 compounds, 0.02% hits; in the data active means activity change below about -50%; inconclusive means about -30% to -50%; inactive means above about -30%;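 note: stimulus is agonist 54-4 at its EC80 concentration; % is set by controls: 0 for no effect and ±100 for the full control effect; the text of the record puts the active cut at -80%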
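Tet-induced TRPML1-DL cells loaded with Ca8 no-wash calcium dye were read kinetically on FDSS. Compound addition was followed by EC80 agonist 54-4 (4 uM final); inhibition was read over 110 s.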
Menin MLL FP FL = displaces fluorescein MLL peptide from human menin. Fluorescence polarization, fluorescein-MLL peptide displacement from menin. FP activity change, % at 61.4 µM. 290,000 tested, under 10 active; inconclusive = falling polarisation curve, or a change in total fluorescence; inactive = total fluorescence flat and polarisation flat or rising; no compound was filed as active; the % refers to the polarisation; negative = inhibition;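 note: % of control where 0% means no effect; inhibitors lower the polarisation; unlabelled MLL peptide was the positive control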
* marks the source's active call; other numbers are inactive results; ? = inconclusive; / = not tested or not shown; [ ] = another dose, or the depositor's remark.

SMILES	PINK1 modulator	Sfp inh	ClpP mod	TRPML1 ag	TRPV1 potentiator	TRPML1 blocker	Menin MLL FP FL
Cc1ccc(CC(=O)N2CCN(C(=O)c3ccco3)CC2)cc1	1.5%	17%	-0.4%	0.2	-1	-14	0.9
N#CCSc1nc2ccccc2c(=O)n1-c1ccccc1	-1.2%	21%	0.0%	0.9	-2	7	4.0
Cc1ccc(-c2nnn(CC(=O)N(c3ccc(F)cc3)C(C(=O)NC3CCCC3)c3ccncc3)n2)o1 (configuration not stated)	3.9%	11%	/	-0.4	0	4	-1.6
CCNC(=O)C1(C)CCCN(C(=O)Cc2ccc(OC)c(OC)c2)C1 (configuration not stated)	0.8%	/	0.1%	0.0	/	/	/
O=C(CCCOc1ccccc1)N1CCN(c2ccccn2)CC1	-1.2%	9%	-6.7%	-1.0	-4	8	-1.8
COc1ccc(CN2CCNC(=O)C2CC(=O)NCc2cnn(C)c2)cc1OC (configuration not stated)	2.9%	9%	-4.4%	0.0	3	-18	-5.9
Cn1nc(C(=O)NC2CCC(O)CC2)c2ccccc2c1=O (configuration not stated)	1.8%	/	-1.0%	0.2	11	9	/
O=C(Nc1ccccc1[N+](=O)[O-])C1COc2ccccc2O1 (configuration not stated)	1.2%	-4%	?	3.8	7	8	0.4
N#Cc1ccc(CN2CCN(C(=O)c3cn(Cc4ccccc4)nc3-c3cccnc3)CC2)cc1	2.2%	/	-1.6%	3.0	-5	-18	/
O=C(OCc1ccc([N+](=O)[O-])cc1)C1CC(=O)N(c2ccccc2)C1 (configuration not stated)	1.1%[38.3 µM]	1%	-2.5%	-0.4	1	-4	-1.4
CC(C)Cc1nnc(NC(=O)CSc2nc(O)c(-c3ccccc3)c(=O)[nH]2)s1	-3.2%	9%	?	-0.3	-17	-14	-2.0
C=CCn1c(SCC(=O)N(CC)C2CCS(=O)(=O)C2)nc2scc(-c3ccccc3)c2c1=O (configuration not stated)	3.5%	/	-1.6%	0.0	/	14	/
COc1cccc(-c2cccc(NC(=O)C3CCN(C4CCOCC4)CC3)c2)c1	1.9%	0%	1.7%	0.0	-2	50	/
Cc1cncn1CCc1nc2c3ccccc3nc(SCC(=O)Nc3ccc(F)cc3)n2n1	0.8%	/	1.2%	1.5	/	-4	/
CCOC(=O)CC(NC(=O)c1ccccc1F)c1ccc(C)cc1 (configuration not stated)	0.9%	20%	/	-0.9	-8	-10	-2.2
CC1CCC(NC(=O)CNC(=O)Cc2cccc3ccccc23)CC1 (configuration not stated)	0.0%	-8%	0.4%	-1.6	0	8	2.7
CCCCCNC(=O)c1ccc2c(=O)n(CCc3ccccc3)c(=O)[nH]c2c1	0.2%	/	-1.0%	-0.3	/	7	/
CN(C)S(=O)(=O)c1cccc(C(=O)N2CCN(S(=O)(=O)c3ccc4c(c3)OCCO4)CC2)c1	0.5%	/	-0.2%	-0.5	/	0	/
CN(C(=O)c1cccc(NC(=O)Cc2ccc(NC(=O)C3CCN(S(=O)(=O)c4cccc([N+](=O)[O-])c4)CC3)cc2)c1)C1CC1	0.1%	/	0.8%	-0.6	/	2	/
C=CCSc1nc2sc(-c3ccccc3)cc2c(=O)n1N	4.3%	6%	-16%	2.5	-4	2	4.1
N#CCCN(Cc1cccnc1)C(=S)NC(=O)c1ccccc1	-0.9%	/	0.0%	-0.3	/	28	/
CC(NC(=O)c1ccc2c(=O)n3c(nc2c1)CCCCC3)c1ccccc1 (configuration not stated)	1.3%	/	0.4%	0.0	20	-12	/
Cc1c(NC(=O)Nc2cccc([N+](=O)[O-])c2)c(=O)n(-c2ccccc2)n1C	0.1%	3%	/	-0.2	3	-2	/
CS(=O)(=O)Nc1ccc(C(=O)NCc2ccco2)cc1	-4.3%[38.3 µM]	-2%	-4.1%	0.6	-5	12	1.1
O=C(Cc1cccs1)N1CCN=C1SCc1ccccc1Cl	2.7%	1%	/	1.0	11	?	0.5

Two compounds from above, reduced to TRPV1 potentiator, TRPML1 blocker and PINK1 modulator:
SMILES	TRPV1 potentiator	TRPML1 blocker	PINK1 modulator
COc1cccc(-c2cccc(NC(=O)C3CCN(C4CCOCC4)CC3)c2)c1	-2	50	1.9%
Cc1cncn1CCc1nc2c3ccccc3nc(SCC(=O)Nc3ccc(F)cc3)n2n1	/	-4	0.8%

The list continues.
SMILES	PINK1 modulator	Sfp inh	ClpP mod	TRPML1 ag	TRPV1 potentiator	TRPML1 blocker	Menin MLL FP FL
Cc1ccc(C)c(OCCn2ccnc2)c1	1.8%	-10%	0.0%	0.0	2	0	3.6
O=C(CCSCCc1ccccn1)Nc1nccs1	1.5%	23%	-0.1%	-1.0	/	-12	1.0
CCCc1cc(=O)n2[nH]c(NCc3ccc(OC)c(OC)c3)nc2n1	0.0%	15%	/	1.8	11	-2	-0.2
COC(=O)c1ccc(S(=O)(=O)NCc2ccc(S(N)(=O)=O)cc2)n1C	1.0%	9%	/	-0.5	6	-3	-0.3
Fc1ccc(Cn2cnc3ccccc32)cc1	-2.6%	17%	0.5%	3.3	-11	-6	-0.9
N#Cc1c(N)[nH]c2ccc(Sc3ccccc3)cc12	-3.6%	/	0.6%	1.1	/	-4	/
Cc1nc(CC(=O)Nc2nc(-c3ccccc3)cs2)cs1	0.0%	-17%	-0.4%	-0.2	-36	-15	1.8
COc1ccc(S(=O)(=O)NCC2CCCN(Cc3ccc(O)cc3)C2)cc1 (configuration not stated)	0.3%	18%	-0.1%	0.0	27	29	-2.7
Cc1cc(C)n2nc(SCC(=O)NC3CCCCC3)nc2n1	-0.9%	40µM*	-1.1%	3.2	-4	-18	/
O=C1NCCN1CCNc1nc(NCc2ccccc2)nc2ccsc12	8.6%	/	-16%	?	/	/	/
CN1CCN(C(=O)c2cnn(-c3ccccc3)c2NC(=O)c2cccs2)CC1	6.4%[38.3 µM]	4%	-0.9%	3.9	-29	8	-2.8
CCOC(=O)N1CCN(C(=O)c2cnn3c(C(F)(F)F)cc(-c4cccs4)nc23)CC1	-1.3%	9%	/	1.2	8	3	3.6
Cc1nnc2ccc(N3CCOCC3)nn12	-2.1%	11%	-1.0%	0.3	-11	9	-4.0
Cc1nc2ccc(S(=O)(=O)N(C)CC(=O)Nc3ccc(C(C)C)cc3)cc2s1	0.0%	/	1.7%	1.7	/	-15	/
Cc1ccc(S(=O)(=O)n2ccc(OC(=O)c3cccs3)n2)cc1	2.9%	?	-0.3%	0.3	4	18	-1.6
COCCNC(=S)N1CCC(c2nc(-c3ccc(N(C)C)cc3)no2)CC1	1.8%	6%	-5.7%	1.3	1	15	-2.2
COc1ccc(-n2cc(CNCC3CCOCC3)c(-c3cccc(F)c3)n2)cc1	2.5%	8%	4.1%	0.1	-6	-13	-1.1
CC(C)(C)[C@@H]1C=C(C(=O)N2CCN(Cc3ccc4c(c3)OCO4)CC2)O[C@H](OCc2ccc(CO)cc2)C1	-0.7%	4%	-0.6%	0.6	19	8	-0.6
COc1c(F)c(F)c(C(=O)Nc2cccc(Cl)c2N2CCOCC2)c(F)c1F	15%	-12%	72%	0.8	-5	5	3.0
CCN1CCN(C(=O)c2ccc(-c3nc4ccccc4s3)s2)CC1	-0.4%	1%	3.9%	-0.3	-5	0	-2.8
COc1ccccc1C(=O)NCCC(=O)NCc1ccccn1	4.7%	/	-3.1%	0.2	3	33	/
Nc1ccc2nc(SCc3ccc([N+](=O)[O-])cc3)sc2c1	23%[38.3 µM]	-9%	2.4%	-0.5	2	-14	5.0
COc1ccc(CCN2CC(C(=O)NCc3cn(C)nc3C)CCC2=O)cc1 (configuration not stated)	-0.5%	/	1.2%	0.1	/	22	/
NS(=O)(=O)c1ccc(CNC(=O)CC23CC4CC(CC(C4)C2)C3)cc1	-0.8%	19%	2.1%	-0.4	-22	3	-0.9
Cc1cc(C)c(S(=O)(=O)ON2C(=O)c3ccccc3C2=O)cc1C	0.0%	20µM*	8.9µM*	0.6	1	-15	-1.6
COc1ccc(-c2noc(Cn3c(=O)c4ccccc4n(CC(=O)Nc4cccc(OC)c4)c3=O)n2)cc1	9.6%	/	-9.9%	0.6	/	-24	/
CCSc1nnc(NC(=O)c2nc3nc(C)cc(C)n3n2)s1	1.6%	?	/	-0.9	4	-8	-1.9
COc1ccc(Cc2c(-c3cccc(Cl)c3)nc3ccc(Cl)cn23)c(C)c1	22%	/	-16%	-0.6	/	/	/
CCc1noc(C)c1C(=O)OCC(=O)NCc1ccc(Cl)cc1	0.3%	/	/	2.8	/	-1	/
COCC(C)n1c(SCC(=O)c2cc(C)n(C)c2C)nc2ccccc2c1=O (configuration not stated)	1.8%	-19%	/	0.9	2	-2	-4.3
Cc1ccc(N/C=C/C(=O)c2ccc(C)cc2)cc1	0.4%	4%	-14%	0.2	13	-3	6.4
COc1cc(OC)cc(C(=O)Nc2ccc3c(c2)N(C2CCCC2)C(=O)c2ccccc2S3)c1	1.1%	/	?	0.8	/	-14	/
Cc1ccc(C(=O)N/C(=C/c2ccco2)C(=O)NCCCn2ccnc2)cc1	1.7%	4%	-2.7%	0.3	11	-8	?
c1cn2cc(CN3CCOCC3)nc2s1	7.4%[38.3 µM]	-8%	-2.3%	2.9	-6	9	0.6
CCN(CCCNC(=O)c1cc(Nc2ccc(OC)cc2)nc2ccccc12)c1cccc(C)c1	7.3%	/	5.0%	2.5	/	10	/
CS(=O)(=O)Nc1cccc(-c2nccc(NCc3cccs3)n2)c1	1.3%	-4%	/	/	/	/	-0.1

Screens from PubChem BioAssay.
